Screens deposited in PubChem by several laboratories.
PABP FP inh: PABP-poly(A) binding inhibition; inhibition, % at 35 µM; actives 1% (n = 290,000); PABP-poly(A) RNA binding, fluorescence polarization;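 active means 50% or more with normal probe brightness, or confirmed in later tests; inconclusive means above 50% with abnormal brightness, or retests that disagree; inactive means below 50% or failed in later tests; about a fifth of its hits are not listed in these tables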;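 further: calls also rest on retests at 20 µM and on dose response follow-up; controls were probe without protein and protein plus probe with vehicle; some compounds called inactive have numbers as strong as hits; many hits fall short of the cut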
Target sequence (P11940 whole entry, looked up): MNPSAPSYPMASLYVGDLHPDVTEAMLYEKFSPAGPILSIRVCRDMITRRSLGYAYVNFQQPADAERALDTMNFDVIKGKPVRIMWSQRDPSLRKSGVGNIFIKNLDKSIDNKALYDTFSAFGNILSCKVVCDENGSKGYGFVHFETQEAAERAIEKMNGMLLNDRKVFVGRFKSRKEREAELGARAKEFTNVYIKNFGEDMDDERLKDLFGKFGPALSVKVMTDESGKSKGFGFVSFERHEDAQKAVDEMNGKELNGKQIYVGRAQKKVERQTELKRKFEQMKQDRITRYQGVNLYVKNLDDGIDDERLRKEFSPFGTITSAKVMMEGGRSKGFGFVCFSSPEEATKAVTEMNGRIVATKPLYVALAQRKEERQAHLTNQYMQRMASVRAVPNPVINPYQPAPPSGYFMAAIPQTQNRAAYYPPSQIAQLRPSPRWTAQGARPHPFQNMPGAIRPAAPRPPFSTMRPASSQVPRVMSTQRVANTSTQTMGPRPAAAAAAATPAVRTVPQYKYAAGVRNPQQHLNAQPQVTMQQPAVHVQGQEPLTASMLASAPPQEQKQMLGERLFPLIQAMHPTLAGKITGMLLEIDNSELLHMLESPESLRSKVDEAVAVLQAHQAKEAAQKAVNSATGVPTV
CSC inhib: blocks cancer stem cells | cancer stem cell-like cells viability, luminescence | inhibition, % at 7.5 µM | actives 1.1% (n = 300,000) | AID 2717;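 active means mean at 75% or more and at least half the replicates too; inconclusive means mean and replicates disagree; tested in HMLE shEcad cells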;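 further: 0% = median of negative and 100% = median of positive control wells; the first replicate is given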
HIV Env fusion: inhibitors of HIV Env-mediated cell fusion; HeLa-JRFL Env/CEM21 cell fusion, luciferase; inhibition, % at 12.3 µM; actives 1.1% (n = 360,000); AID 651610;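 active means mean replicate inhibition score of at least 50 and every replicate individually at or above 50; inconclusive means only one of the two criteria met; inactive means mean below 50 and not all replicates reaching 50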;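 further: 0% = plate neutral controls and 100% = maraviroc near 300 nM; one replicate is shown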
Rce1 inh: yeast Ras-converting enzyme inhibition | Q03530 | yeast membranes, quenched prenylated peptide cleavage fluorescence | calls only | actives 0.27% (n = 290,000) | AID 2563;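 active means fall in fluorescence gain of 50% or more versus controls, with final raw signal at or below 3038400; inconclusive means same 50% fall but final raw signal above 3038400; inactive means fall in fluorescence gain under 50%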;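 further: plate controls were neutral control wells for no effect and wells lacking membranes for full effect; tested at 10 µM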
eIF4H FP inh: inhibitors of RNA binding by human eIF4H | eIF4H fluorescence polarization binding assay | actives 0.94% (n = 290,000) | AID 2012 | inhibition, % at 35 µM;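 active means 50% or more with normal probe brightness, or confirmed in later tests; inconclusive means above 50% with abnormal brightness, or retests that disagree; inactive means below 50% or failed in later tests; about a fifth of its hits are not listed in these tables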;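 further: calls also rest on retests at 20 µM and on dose response follow-up; 0% = protein and probe with vehicle and 100% = probe without protein; strong numbers were not always called active; many hits fall short of the cut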
MT1-MMP act inh: inhibitors of human MT1-MMP activation | AID 651647 | HT1080 RFP-PRO-GFP cells, GFP/RFP ratio fluorescence, overnight; percent of plate control window, DMSO zero | GFP/RFP ratio change, % at 20 µM | actives 0.061% (n = 360,000);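 active means GFP/RFP ratio change of at least 30% with cell ATP level not reduced by more than half and red fluorescence within 50% of control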; further: strong numbers were not always called active
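Assay system: RFP-PRO-GFP reporter HT1080 cells; read-out basis: GFP/RFP fluorescence ratio; benchmarks: DMSO wells and RFP-L50D-GFP cells; doses: 20 µM single dose, 1% DMSO; schedule: overnight cell settling, then overnight compound exposure, 37 °C, 5% CO2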
Yeast UUG start: alters start codon recognition fidelity in yeast; activity score, % at 18.7 µM; AID 602363; actives 0.13% (n = 350,000); S. cerevisiae UUG-firefly luciferase reporter, luminescence/redox ratio;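 active means replicate mean at a twofold rise or more, about +100% in these data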;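 further: firefly luciferase made from a UUG start codon reports start codon fidelity; reporter light over untreated wells divided by growth signal over untreated wells; some hits fall short of that in this replicate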
MT1-MMP act inh RFP: second read-out of MT1-MMP act inh, no call of its own (marks repeat the call); RFP signal change, %; measured here: RFP expression control read;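 0 = vehicle wells; hits needed this value within 50% of zero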
* hit, by the source's call; i = inactive; ? = inconclusive; / = no result given.

SMILES	PABP FP inh	CSC inhib	HIV Env fusion	Rce1 inh	eIF4H FP inh	MT1-MMP act inh	MT1-MMP act inh RFP	Yeast UUG start
NC(=S)NN=Cc1nccc2ccccc12	/	/	47	/	/	5	-8	-23
CC(C)N(Cc1ccccc1)C(=O)COC(=O)CCC(=O)c1ccc(F)cc1	/	/	3	/	/	3	7	15
COC(=O)c1c(C)oc2ccc(N(C(=O)c3ccncc3)S(=O)(=O)c3ccc4ccccc4c3)cc12	0	8	27	i	-5	-3	-24	/
Cc1ccc(CNC(=O)c2cn(C)c(=O)c3c2c2ccccc2n3C)o1	3	-11	-33	i	-3	-4	-12	/
O=C(CN1C(=O)S/C(=C\c2ccc(Cl)cc2)C1=O)NNC(=O)c1ccccc1O	4	3	-49	i	18	4	0	/
CN(C)CCN(C(=O)CN1C(=O)c2ccccc2C1=O)c1nc2cc3c(cc2s1)OCCO3	/	-22	14	i	/	0	3	2
CCCCCCCC(=O)N/N=C/c1ccco1	-12	-10	-1	i	-8	1	3	/
COc1ccc(C(=O)NCCN2CCCC2)cc1[N+](=O)[O-]	13	-4	-8	i	6	-2	3	-11
CCOc1ccc(Br)cc1S(=O)(=O)NCc1ccncc1	-2	-3	-12	i	-3	-4	-10	/
COCCOC(=O)C1=C(C)OC(N)=C(C#N)C1c1cc2cccc(C)c2nc1Cl (stereo not drawn)	13	/	-3	i	-2	3	5	/
COc1ccc(NC(=O)c2cccc(-n3cnnn3)c2)cc1	6	4	33	i	13	1	1	-4
CCN(CC(=O)Nc1c(F)cccc1F)C(=O)CCSc1ccc(C)cc1	/	4	4	i	/	1	1	7
O=C(Nc1ccc2c(c1)OCO2)N1CCN(c2ncc(C(F)(F)F)cc2Cl)CC1	-3	4	41	i	-6	1	-9	3
Cc1ccc(NC(=O)CN2C(=O)S/C(=C\c3ccc(C(=O)O)cc3)C2=O)cc1	1	-1	4	i	14	2	0	-1
Cc1cccc(-n2ncc3c2CCCC3NC(=O)CCCN2CCCCC2=O)c1C (stereo not drawn)	4	-2	/	/	-6	2	-7	-17
CCCN(CC(=O)Nc1ccccc1OC)C(=O)C1=COCCO1	/	/	8	/	/	-6	2	-10
N#Cc1c(-c2ccc(C(F)(F)F)cc2)cc(-c2ccccc2)[nH]c1=S	0	/	-10	i	0	5	4	/
Cc1ccc(-c2noc(CSc3ccccc3)n2)cc1	-5	0	-304	i	-5	0	-1	-47
COc1ccc2[nH]cc(CCNC(=S)NC3CCCC3)c2c1	-6	-8	-9	i	-5	5	-4	/
O=[N+]([O-])c1ccccc1CN1CCN(c2ncccn2)CC1	-1	-11	3	i	0	7	4	-12
CC(C)C(=O)Nc1ccccc1-c1nc2ccccc2[nH]c1=O	1	-4	-9	i	-9	2	2	1
COc1cccc(C(CNc2ccc(S(=O)(=O)N3CCN(C)CC3)cc2[N+](=O)[O-])N(C)C)c1 (stereo not drawn)	/	/	-1	/	/	3	-1	3
Cc1ccc(-n2cc(CN3CCNC(=O)CC3)c(-c3ccc(F)cc3)n2)cc1	-8	-6	13	i	-4	-8	-4	-14
O=C(Nc1ccncc1)C1CCN(S(=O)(=O)c2c(Cl)cccc2Cl)CC1	/	/	9	i	/	-1	-9	-8
Cc1ccc(S(=O)(=O)Nc2ccccc2C=NNC(=O)c2ccncc2)cc1	/	/	15	/	/	2	-4	4

Whole records from above. Screens in order: PABP FP inh, CSC inhib, HIV Env fusion, Rce1 inh, eIF4H FP inh, MT1-MMP act inh, MT1-MMP act inh RFP, Yeast UUG start
`Cc1cccc(-n2ncc3c2CCCC3NC(=O)CCCN2CCCCC2=O)c1C` (stereo not drawn) reads 4, -2, /, /, -6, 2, -7, -17
`O=C(CN1C(=O)S/C(=C\c2ccc(Cl)cc2)C1=O)NNC(=O)c1ccccc1O` reads 4, 3, -49, i, 18, 4, 0, /
`O=C(Nc1ccc2c(c1)OCO2)N1CCN(c2ncc(C(F)(F)F)cc2Cl)CC1` reads -3, 4, 41, i, -6, 1, -9, 3
`CC(C)N(Cc1ccccc1)C(=O)COC(=O)CCC(=O)c1ccc(F)cc1` reads /, /, 3, /, /, 3, 7, 15

Fetched one by one from above:
SMILES	PABP FP inh	CSC inhib	HIV Env fusion	Rce1 inh	eIF4H FP inh	MT1-MMP act inh	MT1-MMP act inh RFP	Yeast UUG start
CCCCCCCC(=O)N/N=C/c1ccco1	-12	-10	-1	i	-8	1	3	/
Cc1ccc(S(=O)(=O)Nc2ccccc2C=NNC(=O)c2ccncc2)cc1	/	/	15	/	/	2	-4	4
CC(C)C(=O)Nc1ccccc1-c1nc2ccccc2[nH]c1=O	1	-4	-9	i	-9	2	2	1
O=[N+]([O-])c1ccccc1CN1CCN(c2ncccn2)CC1	-1	-11	3	i	0	7	4	-12
Cc1ccc(-n2cc(CN3CCNC(=O)CC3)c(-c3ccc(F)cc3)n2)cc1	-8	-6	13	i	-4	-8	-4	-14

Additional structures.
SMILES	PABP FP inh	CSC inhib	HIV Env fusion	Rce1 inh	eIF4H FP inh	MT1-MMP act inh	MT1-MMP act inh RFP	Yeast UUG start
O=C(O)c1ccc(S(=O)(=O)c2ccccc2C(=O)O)c([N+](=O)[O-])c1	-2	2	-4	i	4	1	2	11
O=C(NC(=S)NCCN1CCOCC1)c1ccc(Cl)cc1	-4	-9	-15	i	0	2	2	-16
CCOc1ccc(N/C(N)=N/c2nc(CSc3nnnn3-c3ccccc3)cc(=O)[nH]2)cc1	-9	/	4	i	-3	1	5	5
COc1ccc(/C=C2\SC(=O)N(CC(=O)NNC(=O)c3ccccc3O)C2=O)cc1	-10	35	11	i	-2	6	2	/
COc1ncnc2c1oc1nc(C)c3c(c12)CC(C)(C)OC3	-3	-9	-1	i	-9	0	-2	1
CN(CCOC(=O)c1cccc(Br)c1)C(C)(C)C	6	7	/	i	-5	-1	2	-12
CCOC(=O)c1[nH]c2ccccc2c1N=CN(CC)CC	0	-13	-38	i	6	0	6	0
O=C(O)c1cccc(Nc2ccncc2[N+](=O)[O-])c1	6	-4	2	i	-11	2	5	6
O=C(CN(CC1CCCO1)C(=O)CNS(=O)(=O)c1ccc(F)cc1)NCC1CCCO1 (stereo not drawn)	9	6	5	i	6	5	0	-4
O=[N+]([O-])c1ccc(Cl)c(/C=N/Nc2nc(N3CCOCC3)nc(N3CCOCC3)n2)c1	-2	-8	-1	i	-4	3	4	-1
CC(NC(=O)CN(C)Cc1cccc(F)c1)c1ccccc1 (stereo not drawn)	-5	-12	-6	i	-11	-2	1	-15
O=C(Nc1nnc(SCc2ccc(Cl)cc2)s1)c1ccco1	-11	27	/	i	-7	-4	1	-19
Cc1nc(CN(C)C(=O)CC2C(=O)NCCN2Cc2ccc(-c3ccccc3)cc2)cs1 (stereo not drawn)	-1	-8	13	i	2	-1	-1	-10
Cc1cc(C(=O)N2CCCC2C(=O)O)c(C)o1 (stereo not drawn)	8	/	10	i	8	1	5	-16
O=c1c2ccccc2oc2cc(NCCCn3ccnc3)ccc12	6	38	?	?	-10	4	0	-34
CCOc1ccccc1Nc1nnc(SCC(=O)Nc2ccc3[nH]c(=O)[nH]c3c2)s1	6	-8	-14	i	-6	-3	2	-15
Cc1cc(C(=O)NCC(=O)OCC(=O)Nc2ccc(OC(F)F)cc2)ccc1[N+](=O)[O-]	2	-11	15	i	4	1	3	/
CCCCn1c(N)c(N(CC(C)C)C(=O)c2cccc(S(=O)(=O)N3CCCCC3)c2)c(=O)[nH]c1=O	/	0	10	i	/	-1	1	-9
Cc1cc(Cl)ccc1OCC(=O)N/N=C1\CC2C=CCC12 (stereo not drawn)	-3	-1	13	i	-12	-2	4	/
COc1cc(/C=N/NC(=O)c2nonc2N)cc(OC)c1OC	12	-13	10	i	-17	1	5	-11
c1ccc(-c2ccccc2OCCOCCN2CCCCC2)cc1	-5	33	-294	i	-9	0	-2	-21
CCc1cc(=O)oc2c(C)c(OCC(=O)N3CCCc4ccccc43)ccc12	-8	10	-5	i	-11	4	0	-19
O=c1oc2ccccc2c(N2CCC(c3ccccc3)CC2)c1[N+](=O)[O-]	4	-9	-2	i	-10	-2	1	/
COc1ccc(CCNC(=O)CCCc2ccccc2)cc1OC	4	-7	4	i	6	1	4	-3
C=CCc1cccc(/C=N/NC(=O)CCC(=O)Nc2ccc(F)cc2)c1O	-1	22	2	i	-8	-4	-7	/

Individual results from above:
`O=C(CN(CC1CCCO1)C(=O)CNS(=O)(=O)c1ccc(F)cc1)NCC1CCCO1` (stereo not drawn) in eIF4H FP inh is listed with 6
`COc1cccc(C(CNc2ccc(S(=O)(=O)N3CCN(C)CC3)cc2[N+](=O)[O-])N(C)C)c1` (stereo not drawn) in MT1-MMP act inh is listed with 3
`Cc1ccc(NC(=O)CN2C(=O)S/C(=C\c3ccc(C(=O)O)cc3)C2=O)cc1` in MT1-MMP act inh is listed with 2
`Cc1cccc(-n2ncc3c2CCCC3NC(=O)CCCN2CCCCC2=O)c1C` (stereo not drawn) in CSC inhib is listed with -2

Next part
SMILES	PABP FP inh	CSC inhib	HIV Env fusion	Rce1 inh	eIF4H FP inh	MT1-MMP act inh	MT1-MMP act inh RFP	Yeast UUG start
CN(C)S(=O)(=O)c1cccc(-c2csc(N/N=C/c3ccco3)n2)c1	22	-7	-24	i	38	4	-5	-2
Cc1cc([N+](=O)[O-])nn1CC(=O)Nc1cc(F)ccc1F	-12	2	-5	i	-2	-4	6	/
O=S(=O)(c1ccccc1)N1CCN(c2ccccc2)CC1	2	-8	12	i	5	1	-2	-20
O=C(COC(=O)[C@H](Cc1ccccc1)NC(=O)c1ccco1)NC(c1ccccc1)c1ccccc1	-5	-9	1	i	7	0	2	4
CCC(CC)C(=O)Nc1nnc(SCC(=O)NC(C)(C)C)s1	-6	-1	23	i	-5	2	0	-7
Cc1cc(=O)oc(C)c1C(=O)OCC(=O)c1ccc(Br)cc1	0	-5	/	i	-9	10	5	7
Cc1ccc2nc(C3CCCN3Cc3nc(CCC(C)C)no3)[nH]c2c1 (stereo not drawn)	5	4	21	i	-2	-2	-6	/
COC(=O)C1Cc2c([nH]c3ccccc23)C2(CCN(Cc3ccccc3)CC2)N1 (stereo not drawn)	-7	/	-43	i	0	2	2	-11
O=C(CN1CCc2ccccc21)NN1CC(=O)N(c2ccccc2)CC1=O	-9	3	-77	i	-2	1	7	/
C[C@H]1CCC(=O)N(CCSc2ccc(Br)cc2)CC1	/	-1	-14	/	/	1	-3	19
O=C(C1COc2ccccc2O1)N1CCCCC1 (stereo not drawn)	/	-11	/	/	/	-2	0	-5
CN(CC(=O)Nc1ccc(F)cc1)C(=O)COC(=O)c1nc(Cl)ccc1Cl	/	/	28	/	/	0	3	-23
CCCCN1CCc2c([nH]c3ccc(C)cc23)C1=O	2	-14	-87	i	0	1	3	-8
COc1ccc(/C=C2\N=C(C(C)(C)C)OC2=O)c(OC)c1	-12	-9	-21	i	-7	-3	1	-11
c1ccc(SCCOCCN2CCOCC2)cc1	16	13	3	i	7	1	1	-9
COc1ccc(NC(=O)C(=O)N2N=C3CCCCC3C2(O)C(F)(F)F)cc1 (stereo not drawn)	43	-11	0	i	-5	1	-1	/
CCCc1cc(=O)[nH]c(/N=C(/NC(=O)C(C)N2C(=O)c3ccccc3C2=O)Nc2ccccc2)n1 (stereo not drawn)	-8	/	-42	i	-5	1	0	-21
CC[C@H](C)[C@H](NC(N)=O)C(=O)Nc1ccc(NC(C)=O)cc1	6	-5	9	i	-15	3	4	-20
COC(=O)C1CC(c2ccccc2)N(c2ccccc2)O1 (stereo not drawn)	/	/	18	/	/	3	3	-21
Cc1cc(O)c2c(c1)CC1C3CCC4CC(=O)CCC4(C)C3CC(=O)C21C (stereo not drawn)	/	/	34	/	/	9	-5	-1
